# UUG fidelity – alters start codon recognition fidelity in yeast; 350,000 tested, 0.13% active; activity score, % at 18.7 µM; S. cerevisiae UUG-firefly luciferase reporter, luminescence/redox ratio;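 active means replicate mean at a twofold rise or more, about +100% in these data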;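 further: firefly luciferase made from a UUG start codon reports start codon fidelity; reporter light over untreated wells divided by growth signal over untreated wells; some hits fall short of that in this replicate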
# Env fusion inh – HIV envelope-mediated fusion inhibition; HeLa-JRFL Env/CEM21 cell fusion, luciferase; AID 651610; inhibition, % at 12.3 µM; 360,000 tested, 1.1% active;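 active means mean replicate inhibition score of at least 50 and every replicate individually at or above 50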;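 further: 0% = plate neutral controls and 100% = maraviroc near 300 nM; one replicate is shown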
# Starred values were filed as active, the others as inactive; [ ] = another dose, or the depositor's remark. Only part of the results is shown; count on the stated rates, not on these rows.
SMILES,UUG fidelity,Env fusion inh
CC(C)NC(=O)N[C@H]1CC[C@H](CCNC(=O)C2CC2)O[C@@H]1CO,-8.6,-9.3[16.7 µM]
C[C@H](CO)N1C[C@H](C)[C@H](CN(C)C(=O)Nc2ccc3c(c2)OCO3)Oc2c(NC(=O)C3CC3)cccc2C1=O,3.9,-10.5[16.7 µM]
O=C(NCCN1CCOCC1)[C@]1(CCS(=O)(=O)c2ccccc2)N=C(c2ccc(OCCCO)cc2)O[C@@H]1c1ccccc1,4.6,-14.8[16.7 µM]
C[C@@H]1CN([C@H](C)CO)C(=O)Cc2cc(NC(=O)Nc3ccc(C(F)(F)F)cc3)ccc2O[C@@H]1CN(C)Cc1ccccc1,5.9,3.2[16.7 µM]
C[C@H]1CN([C@@H](C)CO)C(=O)CCCn2nncc2CO[C@H]1CN(C)CC1CCCCC1,-9.7,16.6[16.7 µM]
C[C@@H]1CCCCO[C@@H](CN(C)C(=O)Cc2ccccc2)[C@@H](C)CN([C@@H](C)CO)C(=O)c2cc(NS(=O)(=O)c3cccs3)ccc2O1,15.6,3.0[16.7 µM]
Cc1noc(C)c1NC(=O)N(C)C[C@@H]1OCCCC[C@@H](C)Oc2ccc(NC(=O)NC(C)C)cc2C(=O)N([C@@H](C)CO)C[C@H]1C,-4.5,-98.8[16.7 µM]
CC(C)C(=O)Nc1ccc2c(c1)C(=O)N(C)[C@@H]1CC[C@H](CC(=O)Nc3ccccc3)O[C@H]1CO2,8.5,1.5[16.7 µM]
C[C@@H]1CN([C@@H](C)CO)C(=O)Cc2cc(NC(=O)Nc3ccc4c(c3)OCO4)ccc2O[C@H]1CN(C)C(=O)Nc1cccc2ccccc12,-25.0,-5.3[16.7 µM]
O=C(C[C@H]1C[C@@H]2c3cc(NC(=O)NC4CCCCC4)ccc3O[C@@H]2[C@H](CO)O1)NCc1ccccn1,-28.0,-10.8[16.7 µM]
C[C@H]1CCCCO[C@H](CN(C)Cc2ccc(C(F)(F)F)cc2)[C@@H](C)CN([C@@H](C)CO)C(=O)c2cc(NC(=O)Nc3cccc4ccccc34)ccc2O1,-10.4,27.4[16.7 µM]
C[C@@H]1CN([C@@H](C)CO)C(=O)c2cccc(NS(C)(=O)=O)c2O[C@@H]1CN(C)S(=O)(=O)c1ccccc1,5.1,0.5[16.7 µM]
CCCNC(=O)C[C@H]1CC[C@@H]2[C@H](COc3ccc(NC(=O)c4cccc(C(F)(F)F)c4)cc3C(=O)N2C)O1,4.0,-1.1[16.7 µM]
COc1ccc(NC(=O)N(C)C[C@@H]2Oc3ccc(NC(=O)Nc4cccc5ccccc45)cc3C(=O)N([C@H](C)CO)C[C@H]2C)cc1,-10.0,0.3[16.7 µM]
C[C@@H]1CN([C@H](C)CO)C(=O)c2cc(N(C)C)ccc2O[C@@H](C)CCCCO[C@H]1CN(C)Cc1ccc(C(F)(F)F)cc1,2.9,21.9[16.7 µM]
CN(C)C(=O)C[C@@H]1CC[C@@H]2[C@H](COc3ccc(NC(=O)c4ccc(F)c(F)c4)cc3C(=O)N2C)O1,18.3,13.0[16.7 µM]
C[C@H](CO)N1C[C@H](C)[C@H](CN(C)S(=O)(=O)c2cccs2)OCCCC[C@H](C)Oc2ccc(NS(=O)(=O)c3cn(C)cn3)cc2C1=O,-9.2,-72.6[16.7 µM]
C/C=C/c1ccc2c(c1)O[C@H](CN(C)C(=O)c1cnccn1)[C@H](C)CN([C@H](C)CO)S2(=O)=O,5.7,-3.7[16.7 µM]
C[C@H](CO)N1C[C@H](C)[C@@H](CN(C)Cc2ccccc2)Oc2cc(C#C[C@@H](C)O)ccc2S1(=O)=O,3.2,-0.7[16.7 µM]
O=C(O)C[C@@H]1C=C[C@@H](NC(=O)c2ccncc2)[C@H](CO)O1,-10.0,3.5[16.7 µM]
C[C@@H]1CCCCO[C@@H](CN(C)Cc2ccc(Cl)c(Cl)c2)[C@H](C)CN([C@H](C)CO)C(=O)c2cc(NC(=O)CCC(F)(F)F)ccc2O1,11.9,-27.4[16.7 µM]
COc1ccccc1S(=O)(=O)N[C@H]1C=C[C@@H](CC(=O)N2CCOCC2)O[C@H]1CO,-0.2,19.6[16.7 µM]
CC(C)C#Cc1ccc2c(c1)O[C@H](CN(C)C(=O)C1CCCCC1)[C@H](C)CN([C@H](C)CO)S2(=O)=O,4.6,37.5[16.7 µM]
COc1ccc(NC(=O)N2C[C@@H](O)COC[C@@H]3O[C@@H](CC(=O)N4CCCCC4)CC[C@H]32)cc1,-13.8,0.0[16.7 µM]
C[C@H](CO)N1C[C@H](C)[C@H](CN(C)C(=O)C2CCCCC2)Oc2cc(C3=CCCC3)ccc2S1(=O)=O,-13.2,13.5[16.7 µM]
COCc1cn(CC[C@@H]2CC[C@H](NC(=O)c3ccncc3)[C@@H](CO)O2)nn1,-3.9,-16.8[16.7 µM]
CO[C@@H]1CN(C)C(=O)c2ccc(NC(=O)c3ccc(F)cc3)cc2OC[C@@H](C)N(C)C[C@@H]1C,5.4,3.4[16.7 µM]
C[C@@H]1CN([C@H](C)CO)C(=O)c2cccc(NC(=O)Nc3ccc(C(F)(F)F)cc3)c2O[C@@H]1CN(C)C(=O)Nc1ccc2c(c1)OCO2,10.1,-13.4[16.7 µM]
O=C(OC[C@@H]1[C@H]2c3ccccc3OC1(CO)N=C1SCCCN12)c1ccccc1,-11.4,-28.2[16.7 µM]
C[C@@H]1CCCCO[C@H](CN(C)S(=O)(=O)c2ccc(F)cc2)[C@H](C)CN([C@@H](C)CO)C(=O)c2cc(NS(=O)(=O)c3cccs3)ccc2O1,-5.8,10.0[16.7 µM]

# Four entries drawn at random from those above:
SMILES,UUG fidelity,Env fusion inh
C[C@H](CO)N1C[C@H](C)[C@H](CN(C)C(=O)Nc2ccc3c(c2)OCO3)Oc2c(NC(=O)C3CC3)cccc2C1=O,3.9,-10.5[16.7 µM]
CN(C)C(=O)C[C@@H]1CC[C@@H]2[C@H](COc3ccc(NC(=O)c4ccc(F)c(F)c4)cc3C(=O)N2C)O1,18.3,13.0[16.7 µM]
C[C@H](CO)N1C[C@H](C)[C@@H](CN(C)Cc2ccccc2)Oc2cc(C#C[C@@H](C)O)ccc2S1(=O)=O,3.2,-0.7[16.7 µM]
C[C@@H]1CN([C@@H](C)CO)C(=O)Cc2cc(NC(=O)Nc3ccc4c(c3)OCO4)ccc2O[C@H]1CN(C)C(=O)Nc1cccc2ccccc12,-25.0,-5.3[16.7 µM]

# (list continues)
SMILES,UUG fidelity,Env fusion inh
COc1ccc(CN(C)C[C@@H]2Oc3ccc(NC(=O)CCN4CCOCC4)cc3C(=O)N([C@H](C)CO)C[C@@H]2C)cc1,3.4,3.4[16.7 µM]
Cc1noc(C)c1S(=O)(=O)N(C)C[C@@H]1OCCCC[C@@H](C)Oc2ccc(NC(=O)Nc3ccc(C(F)(F)F)cc3)cc2C(=O)N([C@H](C)CO)C[C@@H]1C,-5.5,0.9[16.7 µM]
COc1ccc(NC(=O)Nc2ccc3c(c2)C(=O)N([C@@H](C)CO)C[C@@H](C)[C@H](CN(C)S(=O)(=O)c2cccs2)O3)cc1,18.6,-9.2[16.7 µM]
C[C@@H]1CCCCO[C@@H](CN(C)S(=O)(=O)c2cn(C)cn2)[C@@H](C)CN([C@H](C)CO)C(=O)c2cc(NC(=O)Cc3ccccc3)ccc2O1,-12.3,12.6[16.7 µM]
C[C@H]1CN([C@@H](C)CO)C(=O)c2cc(C#CCN(C)C)cnc2O[C@@H]1CN(C)C(=O)Cc1cccnc1,-3.0,4.1[16.7 µM]
Cc1ccc(S(=O)(=O)N(C)C[C@@H]2OCCCC[C@@H](C)Oc3ccc(N(C)C)cc3C(=O)N([C@H](C)CO)C[C@@H]2C)cc1,11.4,-3.6[16.7 µM]
CC(C)NC(=O)N(C)C[C@@H]1OCCCC[C@@H](C)Oc2ccc(NC(=O)Nc3ccc(C(F)(F)F)cc3)cc2C(=O)N([C@H](C)CO)C[C@@H]1C,5.6,18.8[16.7 µM]
CCCC(=O)Nc1ccc2c(c1)OC[C@@H](C)N(C(=O)CC1CC1)C[C@H](C)[C@@H](OC)CN(C)C2=O,-2.8,13.0[16.7 µM]
C[C@H]1CN([C@@H](C)CO)C(=O)c2cc(-c3cccc(F)c3)cnc2O[C@H]1CN(C)Cc1ccccc1,-5.7,13.0[16.7 µM]
CO[C@H]1CN(C)C(=O)c2ccc(NC(=O)Nc3c(C)noc3C)cc2OC[C@@H](C)N(C)C[C@@H]1C,-4.3,14.2[16.7 µM]
C[C@H](CO)N1C[C@H](C)[C@@H](CN(C)Cc2ccc(F)cc2)Oc2cc(C#CCN(C)C)ccc2S1(=O)=O,-6.8,-4.7[16.7 µM]
C[C@@H]1CN([C@H](C)CO)C(=O)c2cc(NC(=O)Cc3ccccc3)ccc2O[C@@H](C)CCCCO[C@H]1CN(C)Cc1ccncc1,-5.2,7.5[16.7 µM]
CNC(=O)C[C@H]1CC[C@@H]2[C@@H](COc3ccc(NC(=O)c4ccc(F)cc4)cc3C(=O)N2C)O1,-11.0,-11.0[16.7 µM]
C[C@@H](O)C#Cc1ccc2c(c1)O[C@H](CN(C)C(=O)c1ccncc1)[C@@H](C)CN([C@@H](C)CO)S2(=O)=O,36.6,3.5[16.7 µM]
C[C@@H]1CN([C@H](C)CO)C(=O)c2cccc(NS(=O)(=O)c3ccc(F)cc3)c2O[C@H]1CN(C)S(=O)(=O)c1ccc(F)cc1,-5.9,-3.0[16.7 µM]
CC(C)C#Cc1cnc2c(c1)C(=O)N([C@H](C)CO)C[C@H](C)[C@H](CN(C)C(=O)Cc1ccncc1)O2,-15.6,-18.5[16.7 µM]
C[C@H](CO)N1C[C@H](C)[C@@H](CN(C)C(=O)NC2CCCC2)Oc2ncc(-c3ccc(F)cc3)cc2C1=O,7.2,12.2[16.7 µM]
C[C@H]1CN([C@@H](C)CO)C(=O)c2cc(-c3ccccc3F)cnc2O[C@@H]1CN(C)Cc1cccc(F)c1,9.2,5.8[16.7 µM]
COc1ccc(NC(=O)Nc2cccc3c2O[C@H](CN(C)S(=O)(=O)c2ccc(C)cc2)[C@@H](C)CN([C@H](C)CO)C3=O)cc1,8.7,6.3[16.7 µM]
Cc1ccc(S(=O)(=O)N(C)C[C@@H]2OCCCC[C@@H](C)Oc3ccc(N(C)C)cc3C(=O)N([C@H](C)CO)C[C@H]2C)cc1,46.8,-26.5[16.7 µM]

# Record cards, as listed above.
# CNC(=O)C[C@H]1CC[C@@H]2[C@@H](COc3ccc(NC(=O)c4ccc(F)cc4)cc3C(=O)N2C)O1 reads UUG fidelity: -11.0; Env fusion inh: -11.0[16.7 µM]
# COc1ccc(NC(=O)Nc2cccc3c2O[C@H](CN(C)S(=O)(=O)c2ccc(C)cc2)[C@@H](C)CN([C@H](C)CO)C3=O)cc1 reads UUG fidelity: 8.7; Env fusion inh: 6.3[16.7 µM]

# Additional records.
SMILES,UUG fidelity,Env fusion inh
CN1C(=O)c2cc(NC(=O)NC3CCCC3)ccc2OC[C@H]2O[C@@H](CC(=O)NC3CCC3)CC[C@H]21,0.9,25.3[16.7 µM]
O=C(Cc1ccncc1)NCC[C@@H]1CC[C@H](NC(=O)C2CCOCC2)[C@@H](CO)O1,-0.8,-8.5[16.7 µM]
COc1ccc(NC(=O)N(C)C[C@H]2OCCCC[C@H](C)Oc3ccc(NC(=O)CCCN(C)C)cc3C(=O)N([C@@H](C)CO)C[C@H]2C)cc1,18.5,2.5[16.7 µM]
Cc1ccc(S(=O)(=O)N[C@@H]2CC[C@@H](CCn3cc(-c4ccccc4F)nn3)O[C@@H]2CO)cc1,-2.0,-3.7[16.7 µM]
CCCN(C)C[C@@H]1OCCCC[C@@H](C)Oc2ccc(NS(=O)(=O)c3c(C)noc3C)cc2C(=O)N([C@@H](C)CO)C[C@@H]1C,23.9,-30.7[16.7 µM]
Cc1ccc(S(=O)(=O)N(C)C[C@H]2Oc3c(NC(=O)Nc4ccc5c(c4)OCO5)cccc3C(=O)N([C@H](C)CO)C[C@H]2C)cc1,-5.5,-13.7[16.7 µM]
COc1ccc(NC(=O)N(C)C[C@@H]2OCCCC[C@H](C)Oc3ccc(NC(=O)Nc4cccc5ccccc45)cc3C(=O)N([C@@H](C)CO)C[C@H]2C)cc1,1.3,5.7[16.7 µM]
CN(C)C(=O)C[C@H]1C[C@@H]2c3cc(NC(=O)Nc4ccccc4F)ccc3O[C@@H]2[C@@H](CO)O1,-0.6,-8.5[16.7 µM]
C[C@@H]1CN([C@@H](C)CO)S(=O)(=O)c2ccc(Br)cc2O[C@H]1CN(C)CC1CCCC1,11.2,26.2[16.7 µM]
C[C@@H]1CN([C@H](C)CO)C(=O)Cc2cc(NC(=O)c3ccncc3)ccc2O[C@@H]1CN(C)S(C)(=O)=O,-6.4,-11.1[16.7 µM]
O=C(C[C@@H]1CC[C@H](NC(=O)c2ccncc2)[C@@H](CO)O1)NCC1CCCCC1,-4.0,24.2[16.7 µM]
C[C@@H]1CN([C@H](C)CO)S(=O)(=O)c2ccc(C3=CCCC3)cc2O[C@H]1CN(C)C(=O)c1ccncc1,-15.1,9.6[16.7 µM]
COc1ccc(S(=O)(=O)N(C)C[C@H]2Oc3ccc(NS(=O)(=O)c4ccc(C)cc4)cc3CC(=O)N([C@H](C)CO)C[C@H]2C)cc1,6.5,1.9[16.7 µM]
COCCNC(=O)C[C@@H]1C=C[C@@H](NS(=O)(=O)c2ccc(C)cc2)[C@@H](CO)O1,-7.5,2.5[16.7 µM]
C[C@@H]1CN([C@H](C)CO)C(=O)c2cc(NC(=O)C3CCCCC3)ccc2O[C@@H](C)CCCCO[C@@H]1CN(C)Cc1ccncc1,-6.2,-3.1[16.7 µM]
COc1ccc(S(=O)(=O)N(C)C[C@H]2Oc3c(NC(=O)Nc4cccc5ccccc45)cccc3C(=O)N([C@@H](C)CO)C[C@@H]2C)cc1,2.0,23.5[16.7 µM]
